Bioassay records: PubChem, Johns Hopkins Ion Channel Center
KCNQ2 inh: KCNQ2 potassium channel inhibitors, primary screen, cell-based, CHO-K1, FluxOR thallium flux, B-score (AID 2156) | 20 min; stronger effect = lower value; only compounds with negative scores are shown here; some inactives read as strong as hits | 310,000 tested, 1.1% active | O88943 | B-score at 10 µM;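 active = fluorescence ratio B-score at most minus 3 library SDs, with starting brightness B-score within 2 library SDs, cut at about -5.5 in these data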
Target sequence (O88943 whole entry, looked up): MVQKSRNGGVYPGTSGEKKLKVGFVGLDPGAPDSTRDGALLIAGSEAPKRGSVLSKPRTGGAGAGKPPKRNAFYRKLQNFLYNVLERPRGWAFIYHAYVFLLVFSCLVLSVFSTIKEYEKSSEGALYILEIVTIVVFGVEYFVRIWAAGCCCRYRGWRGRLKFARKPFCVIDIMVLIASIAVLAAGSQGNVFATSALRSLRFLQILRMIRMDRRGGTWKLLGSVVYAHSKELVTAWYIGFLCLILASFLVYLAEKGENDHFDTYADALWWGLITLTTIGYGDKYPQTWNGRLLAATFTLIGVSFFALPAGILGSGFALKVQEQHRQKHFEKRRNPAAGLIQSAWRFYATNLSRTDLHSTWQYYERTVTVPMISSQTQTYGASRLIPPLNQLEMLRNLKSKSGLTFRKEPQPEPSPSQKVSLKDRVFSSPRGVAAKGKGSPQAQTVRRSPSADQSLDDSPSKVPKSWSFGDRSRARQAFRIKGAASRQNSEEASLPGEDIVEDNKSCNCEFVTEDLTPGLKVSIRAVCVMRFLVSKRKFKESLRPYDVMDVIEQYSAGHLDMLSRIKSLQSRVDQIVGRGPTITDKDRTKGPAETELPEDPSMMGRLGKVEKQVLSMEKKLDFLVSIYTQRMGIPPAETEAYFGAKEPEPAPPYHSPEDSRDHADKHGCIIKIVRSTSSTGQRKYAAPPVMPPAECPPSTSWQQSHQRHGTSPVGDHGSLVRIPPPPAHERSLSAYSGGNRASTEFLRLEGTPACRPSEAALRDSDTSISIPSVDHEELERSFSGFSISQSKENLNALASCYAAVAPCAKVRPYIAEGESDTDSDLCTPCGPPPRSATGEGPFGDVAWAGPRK
KCNQ2 inh baseline: further read-out of KCNQ2 inh, marked with its call; B-score; measured here: initial fluorescence intensity artifact check;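 brightness before thallium and not channel activity; 0 = typical well and far values either way flag optical interference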
Active calls of the source: *; i = inactive. The list is partial; rates above refer to the full screens.

SMILES | KCNQ2 inh | KCNQ2 inh baseline
Cc1nc(N)sc1-c1csc(Nc2ncccn2)n1 | i | 1.14
COc1ccc(NS(=O)(=O)c2ccc(C)c(C(=O)N(C)Cc3ccc(C)cc3)c2)cc1 | i | -0.44
CCOC(=O)c1nc(C)n(-c2ccc(Cl)cc2Cl)n1 | i | -0.35
CC(C)N(C(=O)CSc1n[nH]c(=O)n1CCc1ccccc1)C(C)C | i | -0.44
CCOC(=O)C(NC(=O)Nc1ncccn1)(Oc1ccccc1)C(F)(F)F (stereo not drawn) | i | 1.39
CC(=O)N1CC(C)Sc2ccc(S(=O)(=O)NCCc3ccc(C)cc3)cc21 (stereo not drawn) | i | 0.05
CCN(CC)C(=S)SCC(=O)Nc1cccc(C(F)(F)F)c1 | i | -0.87
COc1cccc(/C=N/n2c(-c3ccco3)nc3ccccc3c2=O)c1OC | i | -0.01
CN1/C(=C\C(=O)COC(=O)c2ccco2)C(C)(C)c2ccccc21 | i | -0.25
N#C/C(=C\c1cn(Cc2cccc(F)c2)c2ccccc12)C(=O)NCc1ccco1 | i | -0.42
O=C(c1cc(COc2cccc(C(F)(F)F)c2)on1)N1CCc2ccccc2C1 | i | 1.24
CCOC(=O)N1CCN(C(=O)CN(Cc2ccc(Cl)cc2)S(=O)(=O)c2ccc(C)cc2)CC1 | i | -0.1
CCC/C(=N/NC(=O)c1cccc(Cl)c1)c1ccccc1 | i | -0.47
CC(=O)N/C(=C\c1ccccc1)C(=O)OCc1cc(C)ccc1C | i | 0.76
COc1ccc2c(c1)C(c1ccccc1)NC(=O)C2 (stereo not drawn) | i | 0.09
O=C(NCCS(=O)(=O)NC1CCCCC1)c1ccccc1 | i | 0.15
Cc1ccc(-n2nc3c(=O)n(CC(=O)NCc4cccs4)nc(C)c3c2C)cc1 | i | 1.43
COc1ccc(NC(=O)Nc2ccon2)cc1OC | i | 1.14
CCOc1ccc(CNC(=O)C2CCCN(S(C)(=O)=O)C2)cc1OC (stereo not drawn) | i | -0.12
CC(C(=O)NC1CCCC1)N(c1ccc(Oc2ccccc2)cc1)S(C)(=O)=O (stereo not drawn) | i | -0.05
COC(=O)CCC(=O)Nc1nccs1 | i | -0.03
COc1ccc(C2CC(=O)c3cc(OC)c(OC)cc32)cc1OC (stereo not drawn) | i | 0.05
CCc1ccc(CN(C)C(=O)C2CCC(=O)N(CCc3ccc(OC)cc3)C2)nc1 (stereo not drawn) | i | 2.24
Cc1cc(C)c2c(-n3cccc3)c(C(=O)NNS(=O)(=O)c3ccccc3)sc2n1 | i | 1.68
CSc1nnc(N2C(=O)C(O)=C(C(=O)c3ccco3)C2c2cccc(Cl)c2)s1 (stereo not drawn) | i | 9.79
CCc1ccc(N/C(SCc2cccc(F)c2)=C(/C#N)C(=O)NCc2ccco2)cc1 | i | 0.04
COc1ccc2c(CC(=O)OCC(=O)Nc3ccccc3[N+](=O)[O-])coc2c1 | i | 1.48
O=C(O)CSCc1cnn(-c2ccccc2)c1-n1cccc1 | i | 0.23
O=C1C(Cc2ccccc2)Nc2ncnc(N3CCOCC3)c2N1Cc1ccc(Br)cc1 (stereo not drawn) | i | 0.03
Cc1cc(=O)oc2c(C)c(OCC(=O)NC3CC(C)(C)NC(C)(C)C3)ccc12 | i | 0.79
COCCCNC(=S)Nc1ccc(N2CCCCC2)cc1 | i | 0.37
CCc1cccc(N(C(=O)c2csnn2)C(C(=O)NC2CCCC2)c2cccnc2)c1 (stereo not drawn) | i | -2.96
Cc1cc(C(=O)COC(=O)c2n[nH]c3ccccc23)c(C)n1CC1CCCO1 (stereo not drawn) | i | -0.44
O=C1c2ccccc2NC(c2ccccc2)N1Cc1ccccc1 (stereo not drawn) | i | -0.48
COc1ccc(CN2CCN(Cc3cc4ccccc4o3)CC2CCO)c(F)c1 (stereo not drawn) | i | -0.79
COc1ccc(C(=O)c2nc3c(n2O)CCCCC3)cc1 | i | 0.89
CC12CCC(C(=O)N(CC(O)CN3CCCCCC3)C1=O)C2(C)C (stereo not drawn) | i | -1.57
Cn1c(=O)c2c(C(=O)O)cc(-c3ccccc3)nc2n(Cc2ccccc2)c1=O | i | 0.69
Cc1ccc(C2C(=O)c3ccccc3C2=O)cc1 | i | 0.07
Cc1ccc(NC(=O)C2CCN(S(=O)(=O)c3ccc4c(c3)NC(=O)CO4)CC2)cc1 | i | -0.19
CC(NC(=O)Nc1ccc(Cl)cc1)c1ccccc1 (stereo not drawn) | i | -1.35
CC(C)NC(=O)COc1nncc2ccccc12 | i | -0.3
CC(C)(C)NC(=O)CSc1nc(Cc2ccccc2)nc2ccccc12 | i | 0.54
Cc1cc(C)nc(NCCCc2ccccc2)n1 | i | -1.08
COc1ccccc1-n1c(C)c(C(C)=O)c2cc(O)ccc21 | i | 0.5
O=C(O)/C=C(\Oc1ccccc1)C1(O)CCCCC1 | i | 0.32
CCOc1ccc(NC(=O)C2CC(=O)N(c3cc(C)cc(C)c3)C2)cc1 (stereo not drawn) | i | 0.94
CC(C)OCCCNCC(O)c1ccccc1 (stereo not drawn) | i | -0.65
Cc1[nH]nc2c1C(c1ccc(N(C)C)cc1)C1=C(CC(C)(C)CC1=O)N2 (stereo not drawn) | i | 0.92
Cc1cccc([C@@H]2[C@@H]3C(=O)N(Cc4ccccc4)C(=O)[C@@H]3[C@]3(C)C(=O)N(c4cccc(F)c4)C(=O)N23)c1 | i | 0.01
CC(=O)CC1(O)C(=O)Nc2ccccc21 (stereo not drawn) | i | 1.2
O=C(c1nc2ccccn2c1CNCCCn1ncc2ccccc21)N1CCOCC1 | i | -1.09
CC1CCCCN1CC(=O)Nc1sccc1C#N (stereo not drawn) | i | 1.03
Cc1ccc(-c2nnn(CC(=O)N(CCCO)C(C(=O)NC3CCCC3)c3ccc(F)cc3)n2)o1 (stereo not drawn) | i | -1.58
Cc1ccc(NN2C(=O)C=C(c3ccc(Cl)cc3)C2=O)cc1 | i | -0.12
Cc1ccc(C23CC4CC(CC(C(=O)NC(C)C(=O)O)(C4)C2)C3)cc1 (stereo not drawn) | i | 0.53
COc1cccc(NC(=O)CN(c2ccc(C)cc2)S(=O)(=O)c2c(C)nn(C)c2C)c1 | i | -0.39
O=C(CN1CCN(c2ccccc2F)CC1)NCc1ccc(Cl)cc1 | i | -0.21
Cc1ccc(C(c2nnnn2C2CCCC2)N2c3ccccc3CC2C)cc1 (stereo not drawn) | i | 1.09
c1ccc(Nc2nn[nH]n2)cc1 | i | 1.07
Later entries.
SMILES | KCNQ2 inh | KCNQ2 inh baseline
COCCNC(=O)C(c1ccc(C)cc1)N(C(=O)CCC(=O)Nc1ccccn1)c1cccc(C)c1 (stereo not drawn) | i | 0.68
CCCOc1ccc(/C=C2\SC(=S)N(CC3CCCO3)C2=O)cc1 (stereo not drawn) | i | 0.56
CC(=O)Nc1ccc(-c2cc3ccccc3o2)cc1 | i | -0.03
COCCSc1nnc(NC(=O)c2cc(C(=O)OC)cc([N+](=O)[O-])c2)s1 | i | 2.36
COc1ccc(NC(=O)c2ccc(CNc3c(N4CCCC4)c(=O)c3=O)cc2)cc1Cl | i | -0.32
COc1ccc(/C=C/C(=O)NC(=S)N2CCCC(C(N)=O)C2)cc1 (stereo not drawn) | i | -0.57
O=C(COC(=O)C12CC3CC(CC(C3)C1)C2)Nc1ccccc1F | i | -1.01
COC(=O)c1ccc(-c2ccc(/C=N/N3C(=O)C4C5C=CC(CC5)C4C3=O)o2)cc1 (stereo not drawn) | i | -3.48
Cc1nn(-c2ccccc2)c(N)c1C(O)(CSc1nccn1C)C(F)(F)F (stereo not drawn) | i | 0.01
ClC1CCCCC1n1nnc2ccccc21 (stereo not drawn) | i | 0.79
O=C(N1CCOCC1)C1(c2ccccc2)CCCCC1 | i | 2.27
Cc1c(C#N)c(O)[nH]c(=O)c1N=Nc1ccc(S(N)(=O)=O)cc1 | i | -0.9
O=C(Cc1ccccc1F)Nc1cccc2cccnc12 | i | 0.03
CCn1cc(Br)c(C(=O)NCc2ccco2)n1 | i | 0.05
CN1CCN(C(=O)CCc2ccc(S(=O)(=O)NC3CCCCC3)cc2)CC1 | i | 1.19
CCN(CC)S(=O)(=O)c1ccc(NC(=O)c2cc(-c3cccs3)nc3ccccc23)cc1 | i | 0.88
CC(C)COc1cccc(C(=O)Nc2ccc(N3CCOCC3)cc2N2CCOCC2)c1 | i | -2.47
Cc1c(Cl)cccc1N/C(SCC(=O)N1CCCCCC1)=C(/C#N)c1nc2ccccc2s1 | i | -1.05
CCOC(=O)C1CCCCN1C(=O)CCc1c(C)nc2cc(-c3ccccc3)nn2c1C (stereo not drawn) | i | -0.02
O=C(COC(=O)/C=C/c1ccccc1)Nc1ccc(Cl)cn1 | i | -0.82

An excerpt of these results, as labelled records:
CCn1cc(Br)c(C(=O)NCc2ccco2)n1
  KCNQ2 inh = i; KCNQ2 inh baseline = 0.05

CN1CCN(C(=O)CCc2ccc(S(=O)(=O)NC3CCCCC3)cc2)CC1
  KCNQ2 inh = i; KCNQ2 inh baseline = 1.19

Next section
SMILES | KCNQ2 inh | KCNQ2 inh baseline
CCn1c(SCC(=O)Nc2nc(C)cs2)nnc1-c1ccncc1 | i | -1.44
CCN(C(=O)CSc1ncn[nH]1)c1c(N)n(Cc2ccccc2)c(=O)[nH]c1=O | i | -0.2
COc1ccc(-c2cc3cc(OC)c(OC)cc3c(C)n2)cc1C | i | -0.3
O=C(N/N=C/C=C/c1ccccc1)c1ccncc1 | i | -0.12
Cc1cc(OCCOCCN2CCCC2)ccc1C(C)C | i | 1.9
Cc1ccc(S(=O)(=O)N2CCN(C(=O)COc3ccc(NC(=O)c4ccco4)cc3)CC2)cc1 | i | 0.92
O=C(C(Cc1ccccc1)N1C(=O)C2C3C=CC(C3)C2C1=O)N1CCCCC1 (stereo not drawn) | i | 2.91
O=C1CCC/C(=N/NC(=O)C2CCN(S(=O)(=O)c3cccs3)CC2)C1 | i | 0.38
COc1ccccc1NC(=O)CSc1ccc(-c2ccc(-n3ccnc3)cc2)nn1 | i | 0.83
CCCOc1ncnc2c1sc1nc3c(cc12)COC(C)(C)C3 | i | 0.68
COc1cc(-c2cc(C(=O)Nc3cccc(C(C)=O)c3)c3ccccc3n2)cc(OC)c1OC | -5.61* | 0.06*
Cc1ccc(CN(Cc2cc3cc4c(cc3[nH]c2=O)OCCO4)Cc2nnnn2Cc2ccco2)cc1 | i | -0.09
CCCC(=O)N1CCN(c2nnc(-c3ccc(C)cc3)c3ccccc23)CC1 | i | -0.02
CC(=O)c1ccc(NC(=O)c2ccn(C(=O)OCC(C)C)n2)cc1 | i | 1.27
Cc1cc(C)nc(/N=C2/NC(=O)CS2)n1 | i | -0.03
CCOCCn1c(N2CCCC2)nc2c1c(=O)[nH]c(=O)n2C | i | 0.01
CCOC(=O)C1=C(C)NC(C)=C(C(=O)OCCNC(=O)c2cccnc2)C1c1cccc([N+](=O)[O-])c1 (stereo not drawn) | i | -1.18
Cc1onc(-c2cccc(Cl)c2Cl)c1C(=O)O/N=C(\N)c1ccc([N+](=O)[O-])o1 | i | -0.98
O=[N+]([O-])c1ccc(Cc2nnc(-c3ccc(F)cc3)o2)cc1 | i | -0.44
CCC1(N(C(C)=O)c2ccc(OC)cc2)C(=O)c2ccccc2C1=O | i | 0.28
COc1ccc(NC(=O)CN(C)CC(=O)Nc2ccc(Cl)cc2F)cc1 | i | -0.56
C/C(=N\O)C(=O)NCCCn1ccnc1 | i | 2.62
O=S(=O)(c1ccc(C(F)(F)F)cc1)N1CCCN(c2ccc(C(F)(F)F)cn2)CC1 | i | -0.15
CC(C)(CN1CCC(Cc2ccccc2)CC1)NS(=O)(=O)c1ccccc1 | i | 0.62
O=C(/C(=N/N=C/c1ccc(O)c(O)c1O)c1ccccc1)c1ccccc1 | i | -0.39
COc1ccc(C2c3c(oc4ccccc4c3=O)C(=O)N2c2ccc(C)cn2)cc1OC (stereo not drawn) | i | -1.04
CCC1CCCCN1CCCNC(=O)c1cn(CC(C)C)c(=O)c2cc(OC)c(OC)cc12 (stereo not drawn) | i | 0.36
O=C(Nc1nc(-c2cccs2)c(-c2cccs2)s1)C1(c2ccccc2)CC1 | i | -0.87
O=C1C(Cl)=C(NCCc2ccccc2)C(=O)N1CCc1ccccc1 | i | 0.16
CN1CCN(c2cc(-c3ccccc3)nc3cc(-c4ccc(F)cc4)nn23)CC1 | i | -0.17
CC1CCCN(C(=O)COC(=O)c2ccc[nH]c2=O)C1 (stereo not drawn) | i | 2.25

Structures from the list above that have two or more sulfur atoms, in the order listed:
SMILES | KCNQ2 inh | KCNQ2 inh baseline
Cc1nc(N)sc1-c1csc(Nc2ncccn2)n1 | i | 1.14
CC(=O)N1CC(C)Sc2ccc(S(=O)(=O)NCCc3ccc(C)cc3)cc21 (stereo not drawn) | i | 0.05
CCN(CC)C(=S)SCC(=O)Nc1cccc(C(F)(F)F)c1 | i | -0.87
Cc1cc(C)c2c(-n3cccc3)c(C(=O)NNS(=O)(=O)c3ccccc3)sc2n1 | i | 1.68
CSc1nnc(N2C(=O)C(O)=C(C(=O)c3ccco3)C2c2cccc(Cl)c2)s1 (stereo not drawn) | i | 9.79
CCCOc1ccc(/C=C2\SC(=S)N(CC3CCCO3)C2=O)cc1 (stereo not drawn) | i | 0.56
COCCSc1nnc(NC(=O)c2cc(C(=O)OC)cc([N+](=O)[O-])c2)s1 | i | 2.36
CCN(CC)S(=O)(=O)c1ccc(NC(=O)c2cc(-c3cccs3)nc3ccccc23)cc1 | i | 0.88
Cc1c(Cl)cccc1N/C(SCC(=O)N1CCCCCC1)=C(/C#N)c1nc2ccccc2s1 | i | -1.05
CCn1c(SCC(=O)Nc2nc(C)cs2)nnc1-c1ccncc1 | i | -1.44
O=C1CCC/C(=N/NC(=O)C2CCN(S(=O)(=O)c3cccs3)CC2)C1 | i | 0.38
O=C(Nc1nc(-c2cccs2)c(-c2cccs2)s1)C1(c2ccccc2)CC1 | i | -0.87
